VACV mCherry inh: qHTS for Stage-Specific Inhibitors of Vaccinia Orthopoxvirus: mCherry Reporter Primary qHTS. Vaccinia virus mCherry reporter infection, fluorescence; about a quarter of the inactives have no number. Potency, µM (doses to about 36.5 µM), without a hit: top-dose activity change, negative = inhibition, actives largely listed as inhibitors. 0.63% of 310,000 active; active = well fitted inhibition curve with a large enough effect; inconclusive = small, poorly fitted or top-dose-only effect; inactive = no such curve, though single readings can be large or run the other way; tested in A549 cells; further: nearly all actives have a fitted effect of over 35% in size; inactives centre near -10
VACV Venus inh: qHTS for Stage-Specific Inhibitors of Vaccinia Orthopoxvirus: Venus Reporter Primary qHTS; Vaccinia virus Venus reporter expression, fluorescence; Potency, µM (doses to about 36.5 µM), for the others: top-dose activity change, negative = inhibition, most hits filed as inhibitors; 0.46% of 330,000 active; active means well fitted inhibition curve with a large enough effect; inconclusive means small, poorly fitted or top-dose-only effect; inactive means no such curve, though single readings can be large or run the other way; tested in A549 cells; further: nearly all actives have a fitted effect of over 30% in size; inactives centre near -10
An asterisk follows results filed as active; i = inactive; ? = inconclusive; / = not tested or not shown; [ ] = dose if it differs, or a comment. On the % scale 0 is the no-effect control and ±100 the full control effect; potency means the concentration at half of the fitted maximal effect.

SMILES	VACV mCherry inh	VACV Venus inh
CC(C)(C)OC(=O)NC1CCN(S(=O)(=O)c2ccc3c(c2)OCCO3)CC1	-7%	-8%
Cc1ccc(-n2nnnc2SCC(=O)c2cc(C)n(CC3CCCO3)c2C)cc1 (centres undefined)	i	-12%
O=C(CCc1ccccc1F)N1CCN(c2ccc(C(F)(F)F)cn2)CC1	-11%	-18%
CCC(C(=O)Nc1cc(F)ccc1F)n1nc(C)c2c(C)n(-c3ccc(C)cc3)nc2c1=O (centres undefined)	-22%	-15%
O=C(N/N=C/c1ccncc1)NC1CCCCC1	-7%	-8%
CCCCn1c(N)c(N(CC(C)C)C(=O)COC(=O)C2(c3ccccc3)CC2)c(=O)[nH]c1=O	-11%	-9%
COc1ccc(-n2c(COc3ccc(Cl)cc3Cl)n[nH]c2=S)cc1	i	-3%
CSc1nc(N)c2c(n1)N(C)C=NS2(=O)=O	-10%	12%
CC(C)c1ccc(Nc2n[nH]c(=S)s2)cc1	-1%	1%
CCOC(=O)c1c(C)nc2sc(C(=O)Nc3ccc(OC)cc3)c(N)c2c1-c1ccc(OC)cc1	?	?
CCNC(=O)C1(C)CCCN(C(=O)COCc2ccccc2)C1 (centres undefined)	2%	7%
O=C(Nc1nc(-c2ccccn2)cs1)c1cc(Cl)ccc1[N+](=O)[O-]	?	?
NC(Cc1ccc(Cl)cc1)c1csc(NC(=O)NCC2CCCCC2)n1 (centres undefined)	-4%	10µM*
Cc1ccc(-n2c3nc(=O)n(C)c(=O)c-3cc3c(Cl)cccc32)c(C)c1	-5%	6%
Cc1ccc(C)c(OCCC(=O)NCCc2ccc(S(N)(=O)=O)cc2)c1	-11%	-14%
CCS(=O)(=O)N1CCN(c2cnn(-c3ccccc3)c(=O)c2Cl)CC1	1%	-3%
Cc1ccc(NC(=O)c2ccc([N+](=O)[O-])s2)cc1S(=O)(=O)N1CCOCC1	?	?
O=C(COC(=O)CNC(=O)c1cccs1)Nc1ccc(C(F)(F)F)cc1[N+](=O)[O-]	-21%	-3%
CCCCCCCCCCCCCCCCn1cc[n+](C)c1	?	?
CCCN1CC(C)C(OC(C)=O)(c2ccccc2)CC1C (centres undefined)	/	5%
Cc1ccc(NC2=Nc3ccccc3N3C2=Nc2c(c(C)nn2-c2ccccc2)C3c2ccc(O)c(O)c2)cc1 (centres undefined)	/	?
O=C(C1=C[C@H](C2CCCCC2)C[C@H](OCCCCO)O1)N1CCN(Cc2ccccc2)CC1	?	-13%
CC(=O)N1CCCc2cc(S(=O)(=O)NCc3cccc(C)c3)ccc21	-4%	-8%
Clc1cccc(Cc2c(-c3ccco3)nc3c4ccccc4ccn23)c1	8%	9%
OC(Cc1ccccc1Br)c1ncc(-c2cccc(C(F)(F)F)c2)[nH]1 (centres undefined)	-29%	?
COc1ccc(N(C(=O)C2CCCCC2)S(=O)(=O)c2cccc3cccnc23)cc1	-23%	0%
O=C1CN(C(=O)CN2CCOCC2)C(c2ccccc2)c2cc(Br)ccc2N1 (centres undefined)	-14%	-6%
CCOC(=O)Cc1ccc(NC(=O)N2CCc3c(sc4c3CCCC4)C2c2ccc(F)cc2)cc1 (centres undefined)	-18%	-6%
Cn1cc(C(=O)N2CCN(c3ccccc3)CC2)c(=O)c2cc(S(=O)(=O)N3CCCC3)ccc21	-13%	?
NC(c1csc(Nc2nncc3ccccc23)n1)C1CCCCC1 (centres undefined)	2%	-23%
CCc1nn(CC(=O)N2CCN(c3ccc(F)cc3)CC2)c(=O)c2cc3occc3n12	-4%	0%
Cc1ccc(S(=O)(=O)N2CCN(C(=O)c3cc4c(C)nn(-c5ccccc5C)c4s3)CC2)cc1	?	?
COC(=O)[C@H](Cc1ccccc1)NC(=O)N1CCN(c2ccccc2)CC1	-18%	6%
COC(=O)C1=C(c2ccc3ccccc3c2)C[C@@H]2CC[C@H]1N2C	i	-24%
CC(=O)Nc1ccc(C(=O)OCC(=O)NC(=O)NCc2ccccc2)cc1	i	-4%
CCC(Sc1ncnc2sc3c(c12)CCCC3)C(=O)OC(C)C (centres undefined)	12%	2%
Cc1ccsc1/C=C(\C#N)C(=O)NCc1cccnc1	-15%	-3%
O=C(CN(Cc1ccco1)C(=O)c1ccc(F)cc1)Nc1ccccc1Br	-11%	-12%
CCCC(=O)N(CCN(Cc1ccccc1)C(=O)CCC)Cc1ccccc1	/	-15%
COCn1cnc(-c2ccccc2)c1-c1ccccc1	i	-5%
COc1ccc(C2CC(=O)N(CC(=O)Nc3ccc(C(C)=O)cc3)c3ccccc3S2)cc1OC (centres undefined)	-9%	-4%
CCOC(=O)C1=C(C)NC(=S)NC1c1ccc(OCC(=O)N2CCCCCC2)c(OC)c1 (centres undefined)	-15%	-6%
O=C(NCCCN1CCN(c2cccc(Cl)c2)CC1)c1cnn(-c2ccc(F)cc2)c1-n1cccc1	?	-24%
CCOC(=O)CCC(=O)N1CCOCCOCCOCC1	-17%	2%
O=C(Nc1nc2c(F)cc(F)cc2s1)C1CC1	i	-22%
O=C(c1ccccc1)n1c(=S)nc2ccccn21	-7%	3%
CN(Cc1ccccc1)C(=O)c1[nH]cnc1C(=O)NCC(=O)OCc1ccccc1	-1%	-10%
Cc1cnc([N+](=O)[O-])n1CCOC(=O)NC(=O)c1ccccc1	1%	3%
CN1C(=O)c2cccc3c(S(=O)(=O)Nc4cccc(C(=O)O)c4)ccc1c23	-13%	-9%
O=C(NCc1ccco1)c1nc2c(nnn2Cc2ccccc2Cl)c(=O)[nH]1	13µM*	11µM*
CCN(CC)CCn1c(NC(=O)c2ccc(Cl)cc2)nc2ccccc21	i	-14%
Cc1ccc(Nc2nc3c(c(=O)[nH]2)CCCC3)cc1	i	-2%
Cc1ccc(/C=C/C(=O)N2CCCN(C(=O)/C=C/c3ccc(C)cc3)CC2)cc1	-23%	-10%
O=C(Nc1ccccc1N1CCOCC1)c1cccc(Oc2ccccc2)c1	-9%	-6%
O=C(c1ccc(Cl)cc1)c1ccccc1C(=O)N1CCOCC1	i	-4%
CCOC(=O)C1=C(C)N(c2ccccc2)C(=O)/C1=C\c1ccc(O)c(OC)c1	?	-6%
COc1cc(CNCc2c(C(=O)O)c(C)n(Cc3cccc(Cl)c3)c2C)cc(OC)c1OC	-9%	-6%
CS(=O)(=O)N(CC(=O)O)Cc1cccc(CN(CC(=O)O)S(C)(=O)=O)c1	i	-12%
CSCCCNC(=S)Nc1ccc(N2CCOCC2)cc1N1CCOCC1	-24%	-4%
O=C1NC(c2ccncc2)Nc2sc3c(c21)CCCC3 (centres undefined)	i	-16%

As a working copy, 14 of the compounds above:
SMILES	VACV mCherry inh	VACV Venus inh
CN(Cc1ccccc1)C(=O)c1[nH]cnc1C(=O)NCC(=O)OCc1ccccc1	-1%	-10%
Cc1cnc([N+](=O)[O-])n1CCOC(=O)NC(=O)c1ccccc1	1%	3%
CN1C(=O)c2cccc3c(S(=O)(=O)Nc4cccc(C(=O)O)c4)ccc1c23	-13%	-9%
O=C(NCc1ccco1)c1nc2c(nnn2Cc2ccccc2Cl)c(=O)[nH]1	13µM*	11µM*
CCN(CC)CCn1c(NC(=O)c2ccc(Cl)cc2)nc2ccccc21	i	-14%
Cc1ccc(Nc2nc3c(c(=O)[nH]2)CCCC3)cc1	i	-2%
Cc1ccc(/C=C/C(=O)N2CCCN(C(=O)/C=C/c3ccc(C)cc3)CC2)cc1	-23%	-10%
O=C(Nc1ccccc1N1CCOCC1)c1cccc(Oc2ccccc2)c1	-9%	-6%
O=C(c1ccc(Cl)cc1)c1ccccc1C(=O)N1CCOCC1	i	-4%
CCOC(=O)C1=C(C)N(c2ccccc2)C(=O)/C1=C\c1ccc(O)c(OC)c1	?	-6%
COc1cc(CNCc2c(C(=O)O)c(C)n(Cc3cccc(Cl)c3)c2C)cc(OC)c1OC	-9%	-6%
CS(=O)(=O)N(CC(=O)O)Cc1cccc(CN(CC(=O)O)S(C)(=O)=O)c1	i	-12%
CSCCCNC(=S)Nc1ccc(N2CCOCC2)cc1N1CCOCC1	-24%	-4%
O=C1NC(c2ccncc2)Nc2sc3c(c21)CCCC3 (centres undefined)	i	-16%

Next structures follow.
SMILES	VACV mCherry inh	VACV Venus inh
CCc1ccc(OCC(=O)O/N=C(\N)c2cccnc2)cc1	i	-9%
COCOc1ccc(-c2cc(=O)c3c(O)cc(OCOC)cc3o2)cc1	-22%	-18%
CN1OCC2Cn3c(nc4ccccc43)C21 (centres undefined)	i	-12%
COc1cccc(N2[C@@H](CC(=O)O)c3cc(C(F)(F)F)ccc3S2(=O)=O)c1	-12%	6%
O=C(OCCC1Oc2cccnc2NC1=O)c1ccc(Cl)cc1 (centres undefined)	-4%	-11%
C#CCOCCOCCOCCNc1nc(N2CCN(C(=O)[C@H](CCCCN)n3cc([C@@H](N)C(C)CC)nn3)CC2)nc(N2CCN(C(=O)[C@H](Cc3cc4ccccc4[nH]3)n3cc([C@@H](N)C(C)CC)nn3)CC2)n1 (some centres undefined)	i	-8%
CCc1ccc(N2CC(C(=O)OC)CC2=O)cc1 (centres undefined)	-18%	-12%
Cc1cc([N+](=O)[O-])nn1CCC(=O)NC1CCCCCC1	-10%	-6%
CCN(C[C@H]1N[C@@](C)(C(=O)OC)[C@H]2C(=O)N(C)C(=O)[C@@H]12)C(=O)Nc1ccc(Cl)cc1	-12%	-13%
COc1ccc(Nc2ncnc3c2c(C)c(C)n3CCCN(C)C)cc1	-27%	-7%
Cc1ccc(C)c(C(=O)CN2C(=O)c3ccccc3S2(=O)=O)c1	-5%	-2%
CSc1nnc2c3c4c(sc3nc(-n3nc(C)cc3C)n12)COC(C)(C)C4	-9%	-2%
CN(Cc1ccccc1)C(=O)c1ncn(Cc2ccccc2)c1C(=O)N(C)Cc1ccccc1	i	-19%
COc1ccc(C(=O)NC2CCCc3ccccc32)c(OC)c1OC (centres undefined)	5%	5%
O=C(c1ccccc1Cl)N(Cc1ccccc1F)N1C(=O)CCCC1=O	i	-17%
Cc1ccc(-c2cc(C(=O)N3N=C(C(F)F)CC3(O)C(F)F)c3ccccc3n2)cc1C (centres undefined)	-24%	?
CCOc1cccc(-c2nc3c(s2)CCc2onc(-c4cccc([N+](=O)[O-])c4)c2-3)c1	0%	-11%
O=C(Nc1ccc(C(=O)O)cc1)/C(=C\c1ccc([N+](=O)[O-])cc1)NC(=O)c1ccco1	i	-8%
O=[N+]([O-])c1ccccc1Nc1cccnc1	-5%	-13%
COc1ccccc1C(=O)NCC(=O)N(C)Cc1nc2ccccc2c(=O)[nH]1	i	-19%
COCCN=C1NC(=O)C(CC(=O)Nc2cccc(Cl)c2C)S1 (centres undefined)	4%	-5%
COc1ccccc1-c1c(NC(=O)C(C)C)n(C)c2ccccc2c1=O	-8%	-7%
CCOc1ccc(OCC)c(NC(=O)c2nnn(Cc3cc(Br)ccc3OC)c2N)c1	-21%	-19%
CC(=O)N1N=C(c2ccco2)CC1c1cc2cc(C)ccc2nc1Cl (centres undefined)	0%[7.34 µM]	-9%[7.34 µM]
Nn1cnnc1N/N=C/c1ccc(Cl)cc1Cl	8.9µM*	?
O=c1c2ccccc2nc(-c2cccs2)n1-c1cnccn1	/	-15%
O=c1c2ccccc2c2ccccc2c(=O)n1Cc1cccnc1	i	-3%
N#Cc1ccccc1OCC(=O)C1CC1	-22%[7.34 µM]	-2%[7.34 µM]
Oc1ccc(/C=N/Nc2nccnc2Cl)cc1	-19%	-6%
CCSc1nc(O)c(CC)c(=O)n1C(C)CC (centres undefined)	?	-8%
O=C(c1ccc(F)cc1)N1CCc2c([nH]c3ccccc23)C1c1ccc(Cl)cc1 (centres undefined)	-4%	-13%
Clc1ccc(-c2nnc(-c3ccccc3)c(-c3ccccc3)n2)cc1	0%	-7%
COc1ccc(CC(=O)NCCc2csc3nc(-c4ccccc4F)nn23)cc1	5%	10%
Cc1ccc(-c2cn(S(=O)(=O)c3cccc4nsnc34)nc2N)cc1	/	-28%
Cc1cc2nc3c(=O)n(C4CCCCC4)c(=O)[nH]c3nc2cc1N	-26%	21%
O=C(C1=COCCO1)N(Cc1nnc(-c2ccc(Cl)cc2)o1)C1CC1	-7%	-8%
O=C(CCC(=O)Nc1ccccc1)N/N=C/c1ccccc1F	i	1%
CC1CC(OC(=O)c2ccccc2)CC(C)N1C (centres undefined)	-19%	-4%
CCOc1ccc(S(=O)(=O)NNC(=O)c2cc3ccccc3o2)cc1	-19%	-17%
O=S(=O)(NC(=NCc1ccccc1)c1ccccc1)c1ccccc1	-21%	-3%
COc1cc(NS(=O)(=O)c2ccc3c(c2)C(C)(C)C(=O)N3C)cc(OC)c1	-5%	0%
CCCN(CCC)c1ccc(/C=N/NC(=O)CN2CCOCC2)cc1	i	-9%
CC(C)CNC(=O)[C@H](Cc1ccccc1)NC(=O)c1ccco1	-8%	-3%
CC(C)C(=O)N1CCC(CN=CC2=C(O)CC(C)(C)CC2=O)CC1	/	4%
Cc1c(Cl)cccc1NC(=O)CNCc1ccccc1F	-1%	-13%
COc1ccc(CNC(=O)Cn2cnc3c(SC)nc(N)nc32)cc1	-8%	-12%
CCc1ccc(-c2csc3ncn(Cc4ccc(C(=O)O)cc4)c(=O)c23)cc1	-13%	2%
CCOc1ccc(NC(=O)CC2C(=O)N(CC)C(=S)N2CCNC(C)=O)cc1 (centres undefined)	-9%	-2%
CC(C)(C)NC(=O)CCN(/N=C/c1ccccc1F)C1=NS(=O)(=O)c2ccccc21	-18%	-7%
COc1ccc(S(=O)(=O)N2CCN(C(=O)COc3ccccc3)CC2)cc1	-7%	-13%
COC(=O)CNC(=O)C1CCC(CNS(=O)(=O)c2cccc3nsnc23)CC1 (centres undefined)	i	-14%
